Rango-impB inh: qHTS Assay for Inhibitors of Rango (Ran-regulated importin-beta cargo) - Importin beta complex formation. Rango CFP/YFP FRET sensor + importin beta, 45 min. Potency, µM (series often up to 92.2 µM), inactives show at the highest dose inhibition of complex formation. 340,000 tested, 0.031% active. AID 540263, 2011; active = rising FRET ratio curve, often small or poorly fitted; inconclusive = mostly compound fluorescence or quenching in the first reads; inactive = flat curves in all reads;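 note: potency is the fitted concentration of half-maximal effect; 0% = DMSO wells and 100% = buffer wells lacking importin beta; nearly all actives have a fitted effect of over 15% in size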
Target sequence (Q14974 whole entry, looked up): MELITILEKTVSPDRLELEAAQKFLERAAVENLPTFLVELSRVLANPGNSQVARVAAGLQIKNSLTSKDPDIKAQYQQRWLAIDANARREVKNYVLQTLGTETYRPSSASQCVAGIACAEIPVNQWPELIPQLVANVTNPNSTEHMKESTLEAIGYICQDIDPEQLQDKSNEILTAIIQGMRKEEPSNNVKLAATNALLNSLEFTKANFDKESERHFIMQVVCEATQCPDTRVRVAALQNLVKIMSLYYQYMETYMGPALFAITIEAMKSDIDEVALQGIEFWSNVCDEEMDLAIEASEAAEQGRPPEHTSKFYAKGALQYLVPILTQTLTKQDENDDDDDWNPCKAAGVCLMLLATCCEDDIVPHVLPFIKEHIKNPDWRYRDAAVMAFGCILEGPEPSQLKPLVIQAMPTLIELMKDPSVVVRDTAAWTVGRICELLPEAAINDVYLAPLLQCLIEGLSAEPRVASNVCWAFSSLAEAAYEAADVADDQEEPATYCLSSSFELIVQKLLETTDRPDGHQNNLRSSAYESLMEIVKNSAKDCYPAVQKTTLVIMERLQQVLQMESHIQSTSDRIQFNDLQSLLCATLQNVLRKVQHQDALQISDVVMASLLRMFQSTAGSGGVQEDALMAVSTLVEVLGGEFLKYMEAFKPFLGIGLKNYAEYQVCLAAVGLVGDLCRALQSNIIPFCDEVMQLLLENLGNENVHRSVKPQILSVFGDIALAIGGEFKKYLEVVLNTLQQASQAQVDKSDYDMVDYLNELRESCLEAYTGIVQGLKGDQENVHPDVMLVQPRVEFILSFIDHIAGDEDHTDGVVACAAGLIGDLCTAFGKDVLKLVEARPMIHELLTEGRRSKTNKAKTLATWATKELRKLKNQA
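FRET biosensor Rango (snurportin 1 IBB between N-terminal EYFP and C-terminal Cerulean), 50 nM in PBS/1 mM DTT/0.02% Tween-20/0.1% BSA, preincubated 5 min RT with compound; 0.125 microM importin beta added, 45 min RT, CFP/YFP FRET ratio read.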
GLA inh pH 4.5: qHTS Assay for Inhibitors of Human alpha-Galactosidase at pH 4.5; Alpha-galactosidase A (Homo sapiens), P06280; purified enzyme, 4-MU-alpha-Gal fluorescence, pH 4.5; activity change, negative = inhibition, % at 105 µM; 230,000 tested, under 10 active; inconclusive = small, poorly fitted or top-dose-only inhibition, or a rising curve; inactive = flat fitted curve, though single readings scatter; no compound was filed as active;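 note: 0% = full activity with enzyme and -100% = basal without enzyme; dose as in the result columns while the protocol names 77 µM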
miR-21 reporter: qHTS Assay for Modulators of miRNAs and/orActivators of miR-21; HeLa miR-21 FLuc reporter, luciferase, 48 h; 340,000 tested, under 10 active; Potency, µM (titrated, usually from 38.3 µM), for inactives: at the top dose reporter change, positive = more light; AID 2288, 2010; active = well fitted rising curve with a large enough effect; inconclusive = small, poorly fitted or top-dose-only effect; inactive = no such curve, though single readings can be large or run the other way;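 note: % of control where 0% means no effect; miR-21 action dims this reporter so a rising signal means less miR-21 action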
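Compounds were titrated across several concentrations (up to approximately 40 uM) and incubated 48 hours with HeLa miR-21-FLuc reporter cells (miR-21 target sequence downstream of FLuc, endogenous miR-21). Readout was firefly luciferase luminescence after lytic detection reagent.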
Rango dissoc inh: qHTS Assay for Inhibitors of RanGTP induced Rango (Ran-regulated importin-beta cargo) - Importin beta complex dissociation; Snurportin-1 (Homo sapiens) + GTP-binding nuclear protein Ran (Homo sapiens) + Importin …; Biochemical FRET Rango-importin beta, RanGTP-induced dissociation; Potency, µM (top dose mostly 46.1 µM), for inactives: top-dose activity change, negative = inhibition; 340,000 tested, 0.071% active; active means falling FRET ratio curve, often poorly fitted, with flat reads before Ran was added; inconclusive means other falling curves, or compound fluorescence or quenching; inactive means flat or rising ratio curve;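 note: potency is the fitted concentration of half-maximal effect; % of control where 0% means no effect; nearly all actives have a fitted effect of over 45% in size; -100% = wells without RanGTP and RCC1; the record marks most hits as doubtful in a second field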
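Rango/importin beta premix (0.1/0.25 uM final), PBS + 1 mM DTT + 0.02% Tween-20 + 0.1% BSA; cpd 5 min RT; FRET pre-read; + RanGTP-RCC1 (0.6 uM Ran, 2 mM GTP, 0.2 uM RCC1); 45 min RT; FRET post-read, ex 430, em 486/530 nm.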
An asterisk follows results filed as active; ? = inconclusive; nt = not tested or not shown; [ ] = another dose, or the depositor's remark. An excerpt, so the mix of outcomes need not match the whole.

Rango-impB inh	GLA inh pH 4.5	miR-21 reporter	Molecule	Rango dissoc inh
-0.7%	nt	-35%	CCCN1CCN(C(=O)c2cc(COc3ccc(F)c(F)c3)on2)CC1	0%
1.0%	nt	-5%	CCC(C)c1ccc(-n2c(=O)c3ccccc3n3c(=S)[nH]nc23)cc1 (stereo unspecified)	7%
-2.1%	-15	4%	COc1ccc(Cn2nnnc2CN2CCC(O)(c3ccc(F)cc3)CC2)cc1	30%
-3.9%	2	0%	COCc1cc(C)n(CC(=O)NC(C)c2ccccc2)c(=O)c1C#N (stereo unspecified)	-13%
-1.2%	-2	0%	O=C(NCC(=O)N(Cc1ccccc1)C(C(=O)NC1CCCC1)c1ccco1)c1ccco1 (stereo unspecified)	12%
3.4%	-8	-8%	COc1ccc(CCNC(=O)c2ccc(NS(=O)(=O)c3c(C)noc3C)cc2)cc1OC	-2%
3.3%	-3	6%	CC(=O)c1ccc2c(c1)OCCOCCOc1ccccc1OCCOCCO2	6%
-1.7%	-22	2%	CCN(Cc1ccccc1)S(=O)(=O)c1ccc(C(=O)Nc2nnc(-c3ccccc3OC)o2)cc1	3%
-1.5%	nt	-2%	O=C(CCN1CCCCO1)N1CCCC(N2CCN(c3ccc(F)cc3)CC2)C1 (stereo unspecified)	-1%
-3.6%	3	0%	Cc1cc(C)n2nc(C(=O)OCC(=O)N(CC(C)C)CC(C)C)nc2n1	7%
0.7%	-5	0%	O=C(O)CSc1nc(-c2ccccc2)c(-c2ccccc2)[nH]1	12%
?	0	-10%	CCc1sc(-c2c(C#N)c(N)nc3c2CCCCCC3)cc1[N+](=O)[O-]	3%
0.1%	nt	10%	COc1cc(NC(=O)c2ccc([N+](=O)[O-])o2)ccc1NC(=O)c1ccco1	-21%
-2.9%	nt	-22%	Cc1ccccc1-n1c(=O)n(Cc2ccco2)c(=O)c2[nH]cnc21	-14%
-3.6%	-11	2%	C#CC[N+](C)(C)CC#Cc1ccccc1	-1%
3.6%	-6	-45%	C(=N\N1CCN(Cc2ccccc2)CC1)/c1cccs1	-17%
-0.3%	3	-3%	CC1=CC(C)C2C(=O)N(c3ccccc3)C(=O)C2C1 (stereo unspecified)	-21%
5.8%	nt	nt	O=C(CN1C(=O)c2ccccc2S1(=O)=O)Nc1ccc([N+](=O)[O-])cc1	-7%
?	-19	-1%	CCOC(=O)c1nnn(-c2nonc2N)c1CN(C)C1CCCCC1	16%
0.0%	nt	-4%	Cc1ccccc1S(=O)(=O)N1CCN(C)CC1	2%
-0.5%	nt	nt	COc1ccccc1C=NN1CCCCCC1	0%
1.5%	7	-2%	Cc1ccc(-c2nnn(CC(=O)N(CCO)C(C(=O)NC3CCCCC3)c3ccncc3)n2)o1 (stereo unspecified)	-17%
1.1%	0	2%	CCCn1nc(C(=O)Nc2cccc(C(=O)OC)c2)c2ccccc2c1=O	13%
-7.5%	-8	-1%	CCC(CC)C(=O)Nc1cc(C)cc(C)c1	-20%
?	2	-3%	CCCCN1CCc2[nH]c(=S)[nH]c(=O)c2C1	10%
5.9%	1	-2%	Cc1cc(=O)oc2cc(OCC(=O)Nc3nnc(CC(C)C)s3)ccc12	34%
-4.0%	nt	nt	C[C@@H]1CN([C@H](C)CO)C(=O)c2cccc(NC(=O)c3ccncc3)c2O[C@@H]1CN(C)Cc1ccc(C(=O)O)cc1	16%
-0.4%	0	-7%	CCOC(=O)C(C(=O)Nc1ccccn1)C1CCCCC1 (stereo unspecified)	1%
-2.6%	-10	1%	COc1ccc(CNC(=O)C(c2ccncc2)N(C(=O)Cc2cccs2)c2ccccc2C)cc1 (stereo unspecified)	-8%
-3.4%	nt	0%	CCCCc1nnc(SCC(=O)NC2CCCCC2)n1C	4%

Fetched one by one from the list above (4):
Rango-impB inh	GLA inh pH 4.5	miR-21 reporter	Molecule	Rango dissoc inh
1.1%	0	2%	CCCn1nc(C(=O)Nc2cccc(C(=O)OC)c2)c2ccccc2c1=O	13%
-0.5%	nt	nt	COc1ccccc1C=NN1CCCCCC1	0%
-4.0%	nt	nt	C[C@@H]1CN([C@H](C)CO)C(=O)c2cccc(NC(=O)c3ccncc3)c2O[C@@H]1CN(C)Cc1ccc(C(=O)O)cc1	16%
0.0%	nt	-4%	Cc1ccccc1S(=O)(=O)N1CCN(C)CC1	2%

New compounds follow.
Rango-impB inh	GLA inh pH 4.5	miR-21 reporter	Molecule	Rango dissoc inh
1.6%	-1	-2%	COc1cccc(/C=N/NC(=O)CCc2c(C)n[nH]c2C)c1O	14%
1.6%	5	0%	CS(=O)(=O)N1CCN(C/C=C/c2ccccc2)CC1	5%
0.0%	1	-10%	COc1cccc(-n2c(SCC(=O)Nc3nccs3)nnc2-c2ccoc2C)c1	-2%
0.3%	nt	nt	CC[C@]12c3[nH]c4ccc(OC)cc4c3CCN1C(=O)C(CC(=O)NC/C=C(\C)CCC=C(C)C)C[C@@H]2C(=O)N1CCN(C(=O)c2ccco2)CC1 (stereo partly specified)	-5%
2.0%	2	-7%	C=CCc1ccc(OCCOc2ccc(/C=N/n3cnnc3)cc2OCC)c(OC)c1	-1%
2.4%	1[21.1 µM]	-1%	O=c1c2c(-c3ccccc3)csc2ncn1/N=C/c1ccc(O)c([N+](=O)[O-])c1	2%
-0.9%	nt	nt	CN(C)Cc1ccc(-c2nc3cccc4c3n2CCNC4=O)cc1	1%
-0.7%	nt	-7%	COc1cc(/C=C2/NC(=O)NC2=O)ccc1OCC(=O)Nc1ccc(F)cc1	-4%
0.6%	-19	3%	C(=C\c1ccccc1)/C=N/Nc1ccc2nncn2n1	3%
0.1%	nt	nt	O=C(CCNS(=O)(=O)c1ccc(OC(F)(F)F)cc1)NC1CC1	2%
5.9%	nt	-5%	Fc1ccccc1NC(=S)N1CCOCC1	-7%
0.3%	nt	-4%	O=C(CN(Cc1ccccc1)C(=O)CNS(=O)(=O)c1ccccc1)NCc1ccco1	-11%
1.0%	nt	-5%	Cn1cc([N+](=O)[O-])c(C(=O)N2CCN(Cc3ccc4c(c3)OCO4)CC2)n1	5%
0.4%	-4	-9%	COc1ccc(OC)c(NC(=O)CCCN2C(=S)NC(C)(C)CC2C)c1 (stereo unspecified)	1%
-0.1%	2	-57%	COc1ccc(-c2csc(Nc3cccnc3)n2)cc1	4%
-0.9%	0	-8%	COc1ccc(NC(=O)c2c(NC(=O)CNCc3ccco3)sc3c2CCC3)c(OC)c1	13%
-0.4%	1	8%	CCn1cc(C(c2ccccc2)C(C(C)=O)[N+](=O)[O-])c2ccccc21 (stereo unspecified)	1%
0.3%	1	-1%	OCC1(Cc2ccccc2)CCN(Cc2ccccn2)CC1	-7%
-3.3%	3	22%	COc1ccc(Cn2cccc(NC(=O)Nc3cccc(C#N)c3)c2=O)cc1	-6%
0.4%	nt	nt	CCc1ccccc1Nc1nc(N)nc(COC(=O)CCS(=O)(=O)c2ccccc2)n1	-7%
-2.0%	-11	-8%	Clc1cccc(-c2ccnc3nc(-n4cccc4)nn23)c1	15%
-1.8%	nt	-63%	CCOC(=O)c1ccc2c(c1)nc(-c1ccccn1)n2CC	-9%
-1.7%	-4	-26%	CN(c1ccc(C(=O)Nc2ccccc2C(F)(F)F)cc1)S(C)(=O)=O	-4%
-2.1%	-7	-1%	CC1(C)CC(=O)C2=C(C1)c1c(ccc3ccccc13)NC2c1ccco1 (stereo unspecified)	-13%
3.7%	-2	-33%	Cc1ccc(NC(=O)c2ccc(NCCN)c([N+](=O)[O-])c2)cc1	0%
0.8%	nt	-9%	Cc1cc(=O)n2nc(N3CCC(C(=O)NCc4cccc(Cl)c4)CC3)sc2n1	0%
0.1%	nt	nt	O=S(=O)(/C=C/C=C/S(=O)(=O)c1ccccc1)c1ccccc1	-7%
3.0%	nt	-6%	Cc1ccc(Cn2ncc3c(NCCCN(C)C)ncnc32)cc1	-6%
?	-1	-3%	COc1ccc(N=Cc2nc(-c3ccccc3)oc2OC(C)=O)cc1	-22%
nt	4	0%	COCCn1c(CN2CCN(c3ccc(F)cc3)CC2)nc2c1c(=O)n(C)c(=O)n2C	nt
-0.1%	-7	-23%	COc1ccc(N(C(=O)/C=C/c2ccccc2)C2=CC3CCC(C2)N3C)cc1 (stereo unspecified)	5%
?	1	-6%	CC1(C)CC(=O)c2c(nn(-c3ccccc3)c2N)C1	1%
-2.0%	3	-4%	CCCCC(=O)Nc1ccc2c(c1)nc(CCN1CCOCC1)n2C	14%
0.8%	3	29%	Oc1ccc(CNc2ccccc2)c2cccnc12	0%
0.0%	-3	2%	CSc1cccc(NC(=S)N(CCCN2CCCC2)Cc2cccn2Cc2ccc(Cl)cc2)c1	-1%
-3.0%	-2	-4%	c1ccc2c(c1)N1CCN=C1N2CCN1CCCCC1	1%
?	nt	0%	CCCOc1ccc2cc(C(=O)NCc3ccccc3)c(=O)oc2c1	?
0.4%	1	-6%	CSCCOC(=O)C1=C(C)NC(=O)CC1c1ccccc1Cl (stereo unspecified)	1%
-3.6%	1	7%	O=C(c1ccco1)N1N=C(c2cccs2)CC1c1ccc(F)cc1 (stereo unspecified)	4%
2.5%	-4	-8%	COC(=O)c1ccc(-n2cnc(Cl)n2)c(F)c1	6%
8.0%	2	3%	Cc1nc2cc3c(cc2s1)OCO3	0%
2.2%	nt	6%	Cc1ccc(C)c(N2CCN(C(=O)c3ccc4nc(N5CCOCC5)sc4c3)CC2)c1	23%
nt	5	2%	C#CCOCCOCCOCCNc1nc(N2CCN(C(=O)[C@H](CCCCN)n3cc([C@@H](N)CO)nn3)CC2)nc(N2CCN(C(=O)[C@H](Cc3cc4ccccc4[nH]3)n3cc([C@@H](N)CO)nn3)CC2)n1	nt
0.0%	-13	-1%	CCSc1ccc(C(=O)NCC(=O)O)cc1	?
3.4%	nt	-1%	CC1CCN(C(=O)CSc2nnc(CNC(=O)c3ccc(F)cc3)o2)CC1	-14%
2.7%	nt	19%	COCCN=C1N[C@@H](c2cccc(C(F)(F)F)c2)C(C(=O)OC)=C(C)N1Cc1ccccc1	8%
-0.9%	?	-1%	O=C(Nc1ccc(F)cc1)C1CC(=O)n2cnnc2N1 (stereo unspecified)	13%
0.1%	nt	nt	O=C(COC(=O)Cc1cccs1)Nc1ccc(OC(F)(F)F)cc1	17%
3.2%	-2	-22%	Cc1cc(C(=O)NCc2cccs2)cs1	4%
-0.1%	-2	-44%	COc1ccc(C(=O)Nc2nnc(C(F)(F)F)s2)cc1	15%
-3.6%	-19	-1%	CCCC(c1nnnn1C(C)(C)CC)N(Cc1ccco1)Cc1cc2ccc(OC)cc2[nH]c1=O (stereo unspecified)	-21%
?	nt	3%	COCCNC(=O)CSc1n[nH]c(=O)n1CCc1ccccc1	0%
?	-23	1%	COc1ccc(/C=c2\s/c(=C\C(=O)C(C)(C)C)[nH]c2=O)cc1O	?
2.7%	-5	-14%	CN(C)/C=C(/C#N)C(=O)c1cccc(Oc2ccc(C(C)(C)C)cc2)c1	-7%
-1.2%	-6	-93%	O/N=C/c1ccnc(SCc2ccccc2)n1	12%
?	-17	-12%	O=[N+]([O-])c1cc(Cl)cc(/C=N/NC(=S)Nc2cc(S(=O)(=O)N3CCOCC3)ccc2Cl)c1O	-34%

Bioassay records: PubChem BioAssay, National Center for Advancing Translational Sciences (NCATS)
